H5N1 CPE – antiviral screen in MDCK cells, H5N1 avian flu | cytopathic effect, luminescence, 72 h; hits give high values; no value below 0 was filed and about half of the inactive calls have no number; reference of the scale not given here | inhibition, % at 50 µM | hit rate 0.07% among 96,000; in the data active = inhibition above about 25%
* marks the source's active call; other numbers are inactive results; i = inactive.

SMILES	H5N1 CPE
Cc1ccc2[nH]c(=O)c(CN(CCN3CCOCC3)C(=O)Nc3ccc(F)cc3)cc2c1	i
Cc1ccc(Cn2ccc(NC(=O)c3cc(-c4ccccc4)on3)n2)cc1	i
COc1ccc(N2CCN(C(=O)CSc3nnc4ncccn34)CC2)cc1	0.6
CC(/C=C/c1ccccc1)=N/O	1.3
Cc1ccc(OC(=O)c2ccccc2P(=O)(O)O)cc1	0.1
C=CCn1c(SCC(=O)Nc2cc(C)nn2-c2ccccc2)nnc1C1CCCCC1	0.8
COc1ccc(Cc2nc(C(=O)Nc3ccc(Cl)cc3)cs2)cc1	i
O=C(NC1CCCCC1)c1ccc(CNc2c(N3CCOCC3)c(=O)c2=O)cc1	1.1
COc1ccc(N2CCN(Cc3nc(N)nc(N4CCCc5ccccc54)n3)CC2)cc1	i
CC1CCCCC1NC(=O)COC(=O)c1ccc(S(=O)(=O)N2CCOCC2)cc1 (configuration not stated)	0.5
O=C(NCc1ccco1)c1cnn2c(C(F)(F)F)cc(-c3ccco3)nc12	0.8
CCn1c(SCC(=O)NCCc2ccc(F)cc2)nnc1-c1cccs1	i
COc1cc(OC)c(NC(=O)CCNC(=O)Cn2cnc3ccccc3c2=O)cc1Cl	i
O=S(=O)(c1ccc2c(c1)oc1ccccc12)N1CCOCC1	1.9
Cn1cnnc1SCc1ccccc1Br	0.9
COC(=O)c1c(NC(=O)c2ccco2)sc2c1CCC2	0.6
FCCCOc1ccc(/C=N/OCc2c(Cl)cccc2Cl)cc1	i
Cc1ccc(N2CCN(C(=O)CCc3nc4ccccc4[nH]3)CC2)c(C)c1	3.4
COc1ccc(-n2c(=S)[nH]c3cc(C(=O)NCCCN4CCCC4=O)ccc3c2=O)c(OC)c1	0.6
O=C(Nc1cccc(C(=O)O)c1)/C(=C\c1ccccc1)NC(=O)c1ccccc1Cl	0.1
O=C(COc1ccc(Br)cc1)Nc1ccc([N+](=O)[O-])cn1	1.2
COCCNC(=O)C(c1ccco1)N(Cc1ccc(OC)cc1)C(=O)Cn1nnc2ccccc21 (configuration not stated)	0.2
CCOC(=O)CSc1nc2c(c(=O)n(C)c(=O)n2C)n1Cc1ccccc1F	1.6
CCCCNC(=O)C(Cc1ccccc1)NS(=O)(=O)c1ccc2c(c1)c(=O)n(C)c(=O)n2C (configuration not stated)	0.5
C=CCn1c(Cc2c[nH]c3ccccc23)n[nH]c1=S	i
O=c1c2cnn(-c3ccccc3)c2ncn1Cc1ccccc1F	0.1
COc1ccc(S(=O)(=O)NC(CC(=O)NC2CCCC2)c2ccco2)cc1 (configuration not stated)	i
CC(C)Oc1snc(Cl)c1C(N)=O	i
NC(=O)CSc1nnc(Cn2c(=O)sc3ccccc32)n1-c1cccc(Cl)c1	1.8
O=C(Nc1ccc2c(c1)OCCO2)C1CCN(C(=O)c2ccccc2)CC1	i
Cc1ccc(S(=O)(=O)N(C)c2ccc(OCC(=O)NCc3ccco3)cc2)cc1	i
CCOc1cccc(-c2nnc3sc(COc4ccccc4)nn23)c1	2.8
COc1cccc(C2c3c(oc4ccccc4c3=O)C(=O)N2c2ccccn2)c1 (configuration not stated)	0.1
Cc1ccc2c(c1)c1c(n2CC(O)Cn2c(C)nc3ccccc32)CCCC1 (configuration not stated)	i
Cc1cc(C)n2nc(NCc3ccccc3)nc2n1	2.9
Clc1cccc(Cl)c1-c1nnc2ccc(N3CCOCC3)nn12	1.5
Cn1c(SCc2nc3ccccc3[nH]2)nnc1-c1cnccn1	i
CC(Nc1nc2ncn(Cc3ccccc3)c2c(=O)[nH]1)C(=O)O (configuration not stated)	i
COc1ccc(C2Nc3ccccc3C(=O)N2Cc2ccco2)cc1CN1C(=O)c2ccccc2C1=O (configuration not stated)	i
CCOc1ccc(NC(=O)N2CCN(CC)CC2)cc1	0.5

A different layout for some results above:
compound: COc1cccc(C2c3c(oc4ccccc4c3=O)C(=O)N2c2ccccn2)c1 (configuration not stated)
- H5N1 CPE = 0.1
compound: Cc1ccc2c(c1)c1c(n2CC(O)Cn2c(C)nc3ccccc32)CCCC1 (configuration not stated)
- H5N1 CPE = i

New compounds follow:
SMILES	H5N1 CPE
CC(Sc1ccc2c(c1)OCCO2)C(=O)Nc1ccc2c(c1)OCO2 (configuration not stated)	i
CN(C(=O)COC(=O)C1c2ccccc2Oc2ccccc21)C1CCS(=O)(=O)C1 (configuration not stated)	i
O=S(=O)(c1ccccc1)c1nc(-c2ccco2)oc1N1CCCCCC1	1.9
CCOC(=O)c1cccc(NS(=O)(=O)c2cnc[nH]2)c1	i
Cc1ccc2nsnc2c1NS(=O)(=O)c1c(C)ccc2nsnc12	0.1
COc1ccc(Nc2ccnc3ccccc23)cc1	i
C=CCc1ccc(OCCn2cccc2C=O)c(OC)c1	i
Cc1c(N=Cc2ccc[nH]2)c(=O)n(-c2ccccc2)n1C	0.5
Cc1cc(C)cc(N(CC(=O)NCCSc2ccccn2)S(=O)(=O)c2ccccc2)c1	1.0
COc1ccccc1NC(=S)N1C2CCC1CC(NC(=O)NC13CC4CC(CC(C4)C1)C3)C2 (configuration not stated)	i
CC(=O)c1c(C)[nH]c(C(=O)Nc2cc(C)cc(C)c2)c1C	i
S=c1[nH]nc(Cc2c[nH]c3ccccc23)o1	i
COc1ccccc1C(=O)Oc1ccc(C(C)(C)C)cc1	i
Cc1ccc(C)c(S(=O)(=O)Nc2ccc(O)cc2)c1	i
COc1ccccc1NC(=O)C1CCN(c2ncccn2)CC1	0.3
Cc1ccc(-n2ncc(C#N)c2/N=C/N2CCN(C)CC2)cc1	2.0
CCC(=O)N1CCc2cc(S(=O)(=O)NCCC(=O)NC3CCCc4ccccc43)ccc21 (configuration not stated)	i
CCOc1ccccc1NC(=O)NC1CC2CCCC(C1)N2Cc1nnnn1CCc1ccccc1 (configuration not stated)	1.2
O=C(c1ccco1)N1CCN(C(=O)N2CCOCC2)CC1	i
CN(C)S(=O)(=O)c1ccc(C(=O)NCc2ccccc2)cc1	i
CCOC(=O)c1ccc(N=c2sc(C(=O)OC)cc(=O)n2C2CC2)cc1	i
CCOc1cc(CNCc2ccncc2)cc(Br)c1OCc1ccc(F)cc1	i
CCOC(=O)Cn1c(CN2CCc3ccccc3C2)nc2c1c(=O)n(C)c(=O)n2C	10.6
C=CCNc1ccc(F)c(F)c1N1CCCCCC1=O	i
CSCC[C@H](NC(=O)NCCc1ccc(F)cc1)C(=O)O	i
CCOc1cc(S(=O)(=O)N2CCC(C(N)=O)CC2)ccc1F	i
O=C(c1cc(-c2ccncc2)nc2ccc(Cl)cc12)N1CCN(C(=O)C2CCCO2)CC1 (configuration not stated)	0.6
c1ccc(-c2ccc(-c3nc(-c4cccnc4)no3)cc2)cc1	i
COc1ccc(-n2c(=O)c3ccccc3n(CC(=O)NC3CCCCC3)c2=O)c(OC)c1	0.2
COc1ccccc1CNC(=O)CN1CCC(NC(=O)c2ccccc2F)CC1	1.1
Cc1ccc(N2CC(C(=O)Nc3nccs3)CC2=O)cc1Cl (configuration not stated)	1.2
O=C(NC1CCSC1=O)c1ccc(Cl)cc1 (configuration not stated)	0.0
Cc1ccc(CN2CCCNC2=O)cc1	i
COC(=O)C(O)(NC(=O)OCc1ccccc1)C(F)(F)F (configuration not stated)	i
O=C(N1CCCCCC1)N1CCN(S(=O)(=O)c2ccccc2)CC1	0.3
Cc1cc(C)cc(CC2CC(=O)N(c3ccc(Cl)cn3)C2=O)c1 (configuration not stated)	i
O=C(NCCc1ccccc1)C(=O)NC1CCCCC1	i
CC(=O)c1cccc(NC(=O)CCNS(=O)(=O)c2cccc(C(C)=O)c2)c1	0.1
COC(=O)[C@H](CC(C)C)NC(=O)N1CCN(c2cccc(C(F)(F)F)c2)CC1	i
c1ccc2c(SCc3cn4cccnc4n3)ncnc2c1	6.5
COc1cccc(C(=O)N(Cc2cc3cc(C)ccc3[nH]c2=O)C(C)C)c1	3.5
CC(=O)c1cccc(N(CC(=O)Nc2ccc(F)cc2F)S(C)(=O)=O)c1	0.3
O=C(CSc1nnc(Cc2ccccc2)o1)NCCN1C(=O)CSC1=O	0.5
CCCN1C(=O)c2cc(C(=O)NCCc3cccc(C)c3)ccc2C1O (configuration not stated)	5.0
O=C(CN1CCN(Cc2ccccc2)C1=O)NCc1ccc(Cl)cc1	i
O=C(CCn1c(=O)c2sccc2n(CC(=O)OCc2ccccc2)c1=O)NCc1ccccc1	i
COc1ccnc(NCc2cccc(C(F)(F)F)c2)c1C#N	i
Cn1nc(CC(=O)Nc2cccc3ncccc23)c2ccccc2c1=O	1.2
CCCNC(=O)c1ccc(N(Cc2ccccc2)S(C)(=O)=O)cc1	i
CCOC(=O)c1ccc(N2C(=O)c3n[nH]c(C)c3C2c2ccco2)cc1 (configuration not stated)	0.3
Cc1cccc(CSc2nncc(=O)[nH]2)c1	0.5
CSCCC1NC2(C(=O)Nc3c(C)cc(Cl)cc32)[C@@H]2C(=O)N(C3CCCC3)C(=O)[C@H]12 (some centres not stated)	i
O=C(CN1C(=O)CC(c2ccco2)Sc2ccccc21)NCc1ccc2c(c1)OCO2 (configuration not stated)	i
C=CCn1c(COc2cccc3ccc(C)nc23)nnc1SCC(=O)O	i
CC(=O)N(C(C)=O)c1cccc2c(N(C(C)=O)C(C)=O)cccc12	i
CNc1nn(-c2cccc(Cl)c2)nc1N	i
Clc1cccc(Cl)c1NC1=NCCC1	1.0
CC(C)COC(=O)c1nnsc1NC(=O)Nc1ccccc1	i
COc1cc(NC2c3ncccc3C(=O)N2Cc2ccco2)cc(OC)c1 (configuration not stated)	0.9
O=C1c2ccccc2C(=O)N1CNc1ccccc1	i

Other records follow:
SMILES	H5N1 CPE
Cc1ccc(NC2=NCC(=O)N2Cc2ccc3c(c2)OCO3)c(C)c1	i
Cc1ccc(C(=O)Nc2cc(C(F)(F)F)ccc2N2CCCCC2)cc1[N+](=O)[O-]	0.8
CCOC(=O)Cn1c(=O)oc2cc(S(=O)(=O)N3CCC(N4CCCCC4)CC3)ccc21	2.1
O=C(NC(N1CCCC1)C(Cl)(Cl)Cl)c1ccccc1 (configuration not stated)	i
CN1CCN(c2ccc(NC(=O)Cc3ccccc3)cc2)CC1	i
CC(=O)c1ccc2c(c1)Nc1ccccc1S2	i
O=C(NCCCn1ccnc1)NC(C(F)(F)F)C(F)(F)F	0.2
Cc1ccc(N2CC(C(N)=O)CC2=O)cc1C (configuration not stated)	i
CCOc1ccc(NC(=O)NCCCn2c(C)nc3cc(C)c(C)cc32)cc1	i
CCOc1ccc2[nH]c(=O)c(CN(CCO)Cc3nnnn3CCc3ccccc3)cc2c1	1.9
CCOC(=O)c1c(C)[nH]c(C(=O)Cn2nnc(-c3ccc(Cl)cc3)n2)c1C	i
CC(C)(C)c1ccc(S(=O)(=O)NCCc2ccncc2)cc1	i
COC(=O)COc1ccc(S(=O)(=O)Nc2ccc(C(N)=O)cc2)cc1C	0.6
Cc1sc(NC(=S)NC(=O)c2cccs2)nc1-c1ccc(CC(C)C)cc1	i
COc1cccc(CNC(=O)CSCc2cnn(-c3ccccc3)c2-n2cccc2)c1	0.4
COc1cc(CN(C)CC(=O)c2[nH]c(C)c(C(C)=O)c2C)ccc1OC(F)F	3.3
CCCCCc1c(C)nc(N2CCc3ccccc32)[nH]c1=O	i
Cc1cc(C)n(-c2nc(-c3ccc(Cl)cc3)cs2)n1	i
O=C(CS(=O)CC(=O)N(CC(=O)NC1CCCC1)C1CCCC1)Nc1ccc(F)cc1 (configuration not stated)	i
O=C(COC(=O)CCOc1ccccc1)NCc1ccco1	i
COc1cccc(N2CCN(C3CC(=O)N(c4ccc(F)c(Cl)c4)C3=O)CC2)c1 (configuration not stated)	i
CC(C)Sc1nc(N2CCOCC2)c2c(c1C#N)CC(C)(C)SC2	3.6
Cc1c(N=Cc2c(O)n(CCc3ccccc3)c(=O)[nH]c2=O)c(=O)n(-c2ccccc2)n1C	2.9
Clc1ccc(-n2ncc3c(N4CCCCCC4)ncnc32)cc1	i
COc1cccc(C(=O)N2CCCC(c3nc(-c4cccs4)no3)C2)c1 (configuration not stated)	0.3
COc1ccc(C(=O)CSc2nnc(Cn3cnc4ccccc43)o2)cc1	0.3
CCn1c(=S)sc2c(=O)n(-c3ccccc3)c(SC)nc21	0.0
COc1ccc(CNC(=O)c2cccc(N3CCCC3=O)c2)cc1	i
CCSc1nc2c(c(=O)n1CC)SC(C)C2 (configuration not stated)	i
S=c1[nH]c2ccc(Cl)cc2[nH]1	i
O=C(NCc1ccccc1C(F)(F)F)C12CN(Cc3ccccc3)CC1C(c1ccc([N+](=O)[O-])cc1)=NO2 (configuration not stated)	0.6
O=C(Nc1ccc2c(c1)OCO2)C1CCN(S(=O)(=O)c2cccc3cccnc23)CC1	i
NC(=O)NC(Cc1ccccc1)C(=O)NCC1(N2CCCCC2)CCCCC1 (configuration not stated)	i

Grouped by structure: the compounds so far with an aryl thioether with sulfur outside any ring.
SMILES	H5N1 CPE
COc1ccc(N2CCN(C(=O)CSc3nnc4ncccn34)CC2)cc1	0.6
C=CCn1c(SCC(=O)Nc2cc(C)nn2-c2ccccc2)nnc1C1CCCCC1	0.8
CCn1c(SCC(=O)NCCc2ccc(F)cc2)nnc1-c1cccs1	i
Cn1cnnc1SCc1ccccc1Br	0.9
CCOC(=O)CSc1nc2c(c(=O)n(C)c(=O)n2C)n1Cc1ccccc1F	1.6
NC(=O)CSc1nnc(Cn2c(=O)sc3ccccc32)n1-c1cccc(Cl)c1	1.8
Cn1c(SCc2nc3ccccc3[nH]2)nnc1-c1cnccn1	i
CC(Sc1ccc2c(c1)OCCO2)C(=O)Nc1ccc2c(c1)OCO2 (configuration not stated)	i
Cc1cc(C)cc(N(CC(=O)NCCSc2ccccn2)S(=O)(=O)c2ccccc2)c1	1.0
c1ccc2c(SCc3cn4cccnc4n3)ncnc2c1	6.5
O=C(CSc1nnc(Cc2ccccc2)o1)NCCN1C(=O)CSC1=O	0.5
Cc1cccc(CSc2nncc(=O)[nH]2)c1	0.5
C=CCn1c(COc2cccc3ccc(C)nc23)nnc1SCC(=O)O	i
CC(C)Sc1nc(N2CCOCC2)c2c(c1C#N)CC(C)(C)SC2	3.6
COc1ccc(C(=O)CSc2nnc(Cn3cnc4ccccc43)o2)cc1	0.3
CCn1c(=S)sc2c(=O)n(-c3ccccc3)c(SC)nc21	0.0
CCSc1nc2c(c(=O)n1CC)SC(C)C2 (configuration not stated)	i

Only part of the results is shown. The share of hits here may be higher or lower than overall.
